Screening data deposited in PubChem by National Center for Advancing Translational Sciences (NCATS).
Cruzain noTriton – cruzain (T. cruzi) inhibition without detergent; Potency, µM, inactives show max response, negative = inhibition, usual class: inhibitors; actives 2.3% (n = 200,000); purified cruzain, Z-FR-AMC fluorescence, no detergent; P25779;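 also: plate controls were enzyme without inhibitor for no effect and buffer without enzyme for full effect; nearly all actives have a fitted effect of over 40% in size; top concentration of the series not given in the record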
Target sequence (P25779 123-467 limits assumed): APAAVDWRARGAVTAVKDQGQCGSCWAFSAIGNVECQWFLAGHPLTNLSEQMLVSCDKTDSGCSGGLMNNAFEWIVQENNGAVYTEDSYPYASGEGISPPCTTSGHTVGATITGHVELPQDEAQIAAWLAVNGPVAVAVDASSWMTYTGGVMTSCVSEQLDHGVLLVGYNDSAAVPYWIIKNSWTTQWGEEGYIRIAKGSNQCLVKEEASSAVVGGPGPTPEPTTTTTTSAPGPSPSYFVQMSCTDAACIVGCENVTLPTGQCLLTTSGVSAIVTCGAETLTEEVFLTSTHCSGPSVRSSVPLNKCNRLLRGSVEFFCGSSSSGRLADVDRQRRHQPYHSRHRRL
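Purified cruzain at 1.5 nM, pre-incubated 15 min with compound at room temperature in 100 mM sodium acetate pH 5.5, 5 mM DTT, 0.00005% Triton X-100. Reaction started with 2 uM Z-FR-AMC; AMC fluorescence increase over 60 s gives rate.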
SARS PLP yeast – SARS-CoV PLP inhibition in yeast | S. cerevisiae expressing SARS-CoV PLpro, growth rescue; control for the full effect not named in the record | Potency, µM (doses to about 32.9 µM), for the others: at the highest dose activity, positive = growth rescue | actives 0.19% (n = 330,000) | AID 485353; active means well fitted rising curve with a large enough effect; inconclusive means small, poorly fitted or top-dose-only effect; inactive means no such curve, though single readings can be large or run the other way; also: 0% is about no effect; nearly all actives have a fitted effect of over 55% in size; growth read by luminescence after 48 h
Cruzain inh Det – blocks cruzain activity in presence of Triton detergent; P25779; purified cruzain, Z-FR-AMC fluorescence, 0.01% Triton; Potency, µM, inactives show max response, negative = inhibition, most hits filed as inhibitors; actives 0.43% (n = 200,000);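 also: plate controls were neutral wells for no effect and buffer without enzyme for full effect; nearly all actives have a fitted effect of over 40% in size; top concentration of the series not given in the record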
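Sodium acetate buffer (100 mM, pH 5.5) containing 5 mM DTT and 0.01% Triton X-100 hosted 1.5 nM cruzain and test compound for 15 min at room temperature. Cleavage of 2 uM Z-FR-AMC was then tracked by fluorescence.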
MARV entry inh – blocks Marburg virus binding to or entry into cells; Marburg virus pseudotyped entry inhibition, cell reporter; control for the full effect not named in the record; about a third of the inactives were read at about 46 µM; Potency, µM (titrated, usually from 37.8 µM), for inactives: at the top dose activity change, negative = inhibition, actives largely listed as inhibitors; actives 1.8% (n = 300,000); AID 540276; active = well fitted inhibition curve with a large enough effect; inconclusive = small, poorly fitted or top-dose-only effect, or effect the other way; inactive = flat fitted curve, though single readings scatter; tested in HEK293 cells; about a fifth of its hits are not listed in these tables; also: % is scaled to controls: 0 for no effect and ±100 for the full control effect; luciferase read-out
NS1 inh – influenza NS1 inhibition. S. cerevisiae slowed by influenza A NS1, growth recovery by OD600. Potency, µM (doses to about 46.1 µM), inactives show at the top dose activity, positive = more growth. actives 0.4% (n = 270,000). AID 2326; active means well fitted rising curve with a large enough effect; inconclusive means small, poorly fitted or top-dose-only effect; inactive means no such curve, though single readings can be large or run the other way; also: nearly all actives have a fitted effect of over 50% in size
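Growth recovery, yeast-based: influenza A NS1 expressed in S. cerevisiae causes slow growth, and suppressors are detected by OD600. The parent strain without NS1 is used as positive control.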
RE007 growth inh – less growth of the S. pombe RE007 Vpr strain; S. pombe RE007 Vpr strain, BacTiter-Glo ATP luminescence, 24 h; control for the full effect not named in the record; Potency, µM (titrated, usually from 92.2 µM), for inactives: top-dose activity change, negative = less growth; actives 0.21% (n = 360,000); AID 651644; active = well fitted falling curve with a large enough effect; inconclusive = small, poorly fitted or top-dose-only effect; inactive = no such curve, though single readings can be large or run the other way;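 also: % is scaled to controls: 0 for no effect and ±100 for the full control effect; nearly all actives have a fitted effect of over 50% in size; the assay follows cell death caused by Vpr and the record does not say whether a fall means rescue or toxicity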
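Fission yeast RE007 carrying one integrated HIV-1 vpr copy, seeded at OD 0.01 in PMG+AL medium with 23 nL pinned compound. Grown 24 h at 30 degrees; viability read by BacTiter-Glo luminescence after 5 min.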
Lassa entry inh – inhibitors of Lassa virus binding or cell entry; Lassa virus pseudotype entry inhibition, cell reporter; control for the full effect not named in the record; actives 1.2% (n = 300,000); Potency, µM (series often up to 37.9 µM), without a hit: at the top dose activity change, negative = inhibition, most hits filed as inhibitors; AID 540256; active means well fitted inhibition curve with a large enough effect; inconclusive means small, poorly fitted or top-dose-only effect, or effect the other way; inactive means flat fitted curve, though single readings scatter; tested in HEK293 cells; also: % is scaled to controls: 0 for no effect and ±100 for the full control effect; nearly all actives have a fitted effect of over 50% in size; luciferase read-out
StopGo reporter – FMDV 2A StopGo reporter, luciferase signal; human cells with a luciferase reporter of 2A StopGo recoding; control for the full effect not named in the record; Potency, µM (highest dose often 57.9 µM), inactives show at the top dose signal change, negative = less light; actives 1.2% (n = 410,000); AID 1159524; active = well fitted falling curve with a large enough effect; inconclusive = small, poorly fitted or top-dose-only effect; inactive = no such curve, though single readings can be large or run the other way; tested in HEK293T cells; also: % is scaled to controls: 0 for no effect and ±100 for the full control effect; nearly all actives have a fitted effect of over 45% in size; luciferase light after 4 h
* = called active by the depositor; ? = inconclusive; . = not tested or not shown; & = joins results of further samples; [ ] = dose if it differs, or a comment. Unless noted, calls follow the shape of the dose curve; as a rule, active = well fitted curve in the direction sought with a large enough effect; inconclusive = small, poorly fitted or top-dose-only effect, or another doubt; inactive = no such curve, though single readings can be large; an effect the other way counts as inactive or inconclusive. Potency is read from the fitted curve at half-maximal effect.

SMILES	Cruzain noTriton	SARS PLP yeast	Cruzain inh Det	MARV entry inh	NS1 inh	RE007 growth inh	Lassa entry inh	StopGo reporter
Cc1cccc(OCC(=O)Nc2ccc(S(=O)(=O)N3CCCC3)cc2)c1	?	-7%	-4.0%	-26%	-8%	-1%	-13%	?
COc1ccc(C/C(O)=C(\C#N)c2nc3ccccc3s2)cc1	-23%	-7%	5.6%	-8%	-16%	-3%	2%	72%[activator]
O=C(NCC(=O)N1CCC(Cc2ccccc2)CC1)c1ccc(Cl)cc1	.	-5%	.	-2%	-62%	25%	?	-25%
Cc1ccc(-c2c3c(=O)n(C)c(=O)n(C)c3cn2Cc2cccnc2)cc1	-6%	0%	0.5%	-2%	2%	8%	0%	-8%
O=C(O)c1ccc(/C=N/Nc2ccc(F)cc2F)cc1	.	-1%	.	14µM*	.	154%	2.8µM*	-74%
Nn1c(SCC(=O)NC2CCCCC2)nnc1-c1ccccc1	0%	-4%	-0.3%	6%[46.1 µM]	-3%	-13%	4%	16%
Cn1cc([N+](=O)[O-])c(C(=O)Nc2ccc3nc(-c4ccccc4)[nH]c3c2)n1	10%	-9%	-13%	?	15%	-9%	5%	17%
COCCn1c(C)cc(O)c(C(c2ccccc2OC)N2CCCCC2)c1=O (stereo unspecified)	8%	.	2.3%	.	.	.	?	-9%
CC(NC(=O)C(=O)Nc1nccs1)c1ccccc1 (stereo unspecified)	.	2%	.	4%	11%	-22%	8%	0%
O=C1c2cccc3cccc(c23)C(=O)N1CCCCCc1n[nH]c(=S)o1	.	0%	.	-3%[46.1 µM]	.	4%	.	7%
COc1ccc2[nH]c(=O)c3c(c2c1)OC(C)(C)C=C3	-4%&-7%&1%	-2%	1.9%&-1.3%&-2.3%	-6%	2%	19%	-14%	-24%&-10%
COc1ccc(CCNC(=O)Cn2cnc3scc(-c4ccccc4)c3c2=O)cc1OC	.	-1%	.	.	2%	2%	.	-18%
Cc1ccc(NC(=S)Nc2ccccn2)c(C)c1	.	-2%	.	4µM*	-7%	12%	?	30%
CC(=O)C1=C(O)C(=O)N(c2nccs2)C1c1ccccc1 (stereo unspecified)	-3%	-1%	0.9%	22%[46.1 µM]	-5%	17%	22%	-4%
CC(=O)Nc1ccc(S(=O)(=O)N(CC(=O)Nc2cc(C)on2)Cc2ccc(F)cc2)cc1	.	0%	.	.	2%	-13%	.	-11%
O=C(NCc1ccncc1)Nc1ccc2c(c1)OCO2	.	1%	.	15%[46.1 µM]	5%	-7%	2%	6%
COc1cc(OC)c(NC(=O)C(C)n2nc(-c3ccc(C)cc3)c3c(c2=O)CCCC3)cc1Cl (stereo unspecified)	?	.	-4.8%	?	.	.	?	-26%
O=C(c1cc(-c2cccnc2)nc2ccccc12)N1CCCc2ccccc21	-9%	0%	-9.5%	?	-20%	14%	-26%	-27%
O=C(Nc1ccc(S(=O)(=O)N2CCOCC2)cc1)c1ccco1	1%	2%	2.5%	?	-3%	15%	10%	-16%
Cn1cccc1CC(=O)N/N=C\c1c2ccccc2cc2ccccc12	?	-1%	-9.8%	-19%	6%	3%	-19%	.
CC(NS(=O)(=O)c1ccc2c(c1)OCCCO2)C(=O)O (stereo unspecified)	-6%	-10%	-1.1%	-1%	-6%	7%	-2%	-1%
COc1ccccc1C(=O)Nc1c(C(=O)NC(C)(C)C)oc2ccccc12	-12%	.	-2.8%	.	.	.	5%[46.1 µM]	0%
CCOC(=O)c1nc(-c2ccc(OC)c(OC)c2)no1	.	-4%	.	2%[46.1 µM]	.	-6%	-18%[46.1 µM]	-15%
Cc1nc(SCC(=O)N2CCOCC2)c2c(C)c(C)sc2n1	.	11%	.	-3%[46.1 µM]	10%	-13%	?	-5%
C/C(=N\NC(=O)c1nn(C)c(C)c1Br)c1ccc(NC(=O)C2CCCC2)cc1	.	4%	.	.	-8%	-1%	.	32%

Looked up above:
O=C(Nc1ccc(S(=O)(=O)N2CCOCC2)cc1)c1ccco1 in NS1 inh has -3%
O=C(c1cc(-c2cccnc2)nc2ccccc12)N1CCCc2ccccc21 in StopGo reporter has -27%

Other structures follow.
SMILES	Cruzain noTriton	SARS PLP yeast	Cruzain inh Det	MARV entry inh	NS1 inh	RE007 growth inh	Lassa entry inh	StopGo reporter
O=c1cnnc(N/N=C/c2cccs2)[nH]1	.	0%	.	.	2%	21%	.	-19%
O=C(NCc1ccc(F)cc1)C1CC(=O)N(Cc2ccco2)C1 (stereo unspecified)	.	6%	.	16%[46.1 µM]	7%	1%	2%[46.1 µM]	-1%
COc1ccc(C(=O)Cc2ccccc2)cc1OC	7%	14%	-2.7%	-1%	0%	16%	9%	-12%
O=C1CCCN2N=C(SCC(=O)N3N=C(c4ccc(Br)cc4)CC3c3ccc(F)cc3)SC2=N1 (stereo unspecified)	.	0%	.	?	.	-12%	-17%[46.1 µM]	4%
CCOC(=O)c1c(S(=O)(=O)N2CCCC(C(=O)Nc3cccc(C#N)c3)C2)c(C)n(C)c1C (stereo unspecified)	-6%	.	1.5%	.	.	.	-7%[46.1 µM]	11%
C/C(=N/NC(N)=S)c1cc2ccc(O)cc2oc1=O	.	11%	.	.	5%	-8%	.	-10%
Cn1c(=O)c2[nH]c(SCc3ccccn3)nc2n(C)c1=S	0%	3%	-2.5%	.	-1%&2%	.	.	.
Cc1oc2c(F)c(F)c(F)c(F)c2c1S(=O)(=O)Nc1cccc(C(F)(F)F)c1	.	-20%	.	.	-96%	?	.	?
O=C(CC12CC3CC(CC(C3)C1)C2)NCc1ccc(F)cc1	.	2%	.	3%	-2%	7%	5%	-16%
Cc1cc(C)cc(NC(=O)[C@@H](NC(=O)c2ccco2)C(C)C)c1	.	14%	.	0%[46.1 µM]	-1%	-8%	1%	5%
FC(F)C(F)(F)C1=CC(c2ccccc2)=NCCN1	-3%	-2%	-1.6%	7%	-2%	-13%	13%	-20%
CCn1c(CNc2ccc(Cl)cc2)nnc1SCC#N	.	0%	.	.	0%	-12%	.	-8%
Cn1cc(C(CC(=O)O)C(=O)O)c2ccccc21 (stereo unspecified)	-5%	-10%	2.1%	?	9%	-5%	4%	16%
CC(C)CNC(=O)COC(=O)c1c2c(nc3ccccc13)/C(=C/c1cccs1)CC2	-28%	9%	-5.0%	?	23%	0%	?	56%[activator]
Cc1ccc(NC(=S)c2nc3ccccc3[nH]2)c(C)c1	-24%	-50%	-7.5%	?	-51%	?	?	-52%
COC(=O)Nc1ccc(C)c2nsnc12	-7%	2%	3.5%	-12%	-17%	7%	-19%	-1%
COc1ccc(/C=N/NC(=O)c2cccnc2)cc1CSc1nc2ccccc2s1	?	-24%	-5.6%	-17%	4%	-3%	-24%	35µM*
COc1cc(C(=O)N2CCN(Cc3ccc4c(c3)OCO4)CC2)c([N+](=O)[O-])cc1OC	.	-1%	.	.	-4%	-3%	.	-21%
CC(O)CNCCCOc1cccc(C(F)(F)F)c1 (stereo unspecified)	.	0%	.	12%[46.1 µM]	5%	3%	?	-22%
COc1ccc(C(=O)c2ccc(N(C)C)cc2)c2ccccc12	-4%	-2%	-5.3%	?	9%	17%	?	.
O=S(=O)(NCc1csc(-c2ccccc2)n1)c1ccccc1	6%	.	-7.3%	5%[46.1 µM]	.	.	-8%[46.1 µM]	7%
Cc1nn(C)cc1/C=N/NC(=O)Cn1nccc1C	0%	2%	-0.7%	28%	6%	11%	14%	26%
COc1ccc(OC)c(/C=N/NC(=O)CSc2cc(C)nc3c(OC)cccc23)c1	.	1%	.	-8%[46.1 µM]	0%	1%	-4%	-30%
COc1ccc(-c2cc(C(=O)OCC(=O)c3cccc([N+](=O)[O-])c3)c3cc(C)ccc3n2)cc1	10µM*	7%	1.2%	-7%	10%	1%	6%	-8%
Cc1ccc(C(=O)Nc2ccc(C(=O)O)cc2)cc1S(=O)(=O)N1CCC(C)CC1	-2%	.	0.1%	.	.	.	16%[46.1 µM]	16%
Other structures follow:
SMILES	Cruzain noTriton	SARS PLP yeast	Cruzain inh Det	MARV entry inh	NS1 inh	RE007 growth inh	Lassa entry inh	StopGo reporter
COc1ccc(S(=O)(=O)NCC2CCCO2)cc1NC(=O)c1ccccc1F (stereo unspecified)	.	4%	.	-4%[46.1 µM]	12%	-8%	1%	50%[activator]
Cc1cc(NC(=O)C(C)SCC(=O)Nc2cc(C(F)(F)F)ccc2N2CCOCC2)no1 (stereo unspecified)	.	2%	.	-28%[46.1 µM]	.	-5%	-25%	-29%
Cc1ccc(S(=O)(=O)Nc2cccc(-c3ccc(N4CCCCCC4)nn3)c2)c(C)c1	.	-2%	.	.	13%	-10%	.	-3%
C/C(=C\c1ccccc1)CN1CCN(c2ccccc2)CC1	0%	11%	-0.7%	?	0%	-12%	-13%[14.3 µM]	14%
CN1CCN(c2cc(N3CCc4ccccc4C3)c(F)cc2[N+](=O)[O-])CC1	12%	-5%	-1.3%	?	1%	1%	?	-24%
Cc1nc(/C=[N+](\[O-])C(C)(C)/C=N/O)n(O)c1C	-3%	-3%	-7.3%	0%	0%	-10%	26%	4%
C#CCNC(=O)C1=C[C@@H](c2coc3ccccc3c2=O)C[C@@H](OCc2ccc(CO)cc2)O1	.	1%	.	.	-5%	6%	.	-18%
COc1ccc(C2Nc3ccccc3C(=O)N2c2ccccc2)cc1Cn1cc([N+](=O)[O-])cn1 (stereo unspecified)	-20%	10%	-4.0%	?	-5%	7%	?	-4%

Entries listed so far containing a Cl atom:
SMILES	Cruzain noTriton	SARS PLP yeast	Cruzain inh Det	MARV entry inh	NS1 inh	RE007 growth inh	Lassa entry inh	StopGo reporter
O=C(NCC(=O)N1CCC(Cc2ccccc2)CC1)c1ccc(Cl)cc1	.	-5%	.	-2%	-62%	25%	?	-25%
COc1cc(OC)c(NC(=O)C(C)n2nc(-c3ccc(C)cc3)c3c(c2=O)CCCC3)cc1Cl (stereo unspecified)	?	.	-4.8%	?	.	.	?	-26%
CCn1c(CNc2ccc(Cl)cc2)nnc1SCC#N	.	0%	.	.	0%	-12%	.	-8%
